Screening data deposited in PubChem by ICCB-Longwood Screening Facility, Harvard Medical School.
MgrA-DNA mod: alters Staphylococcus aureus MgrA binding to DNA; inhibition, %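 (about 10 µg/mL by stock and volumes)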; fluorescence polarization; hit rate 0.13% among 84,000; AID 602314;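 active means above 50% in either of two replicates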;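 further: 0% = protein plus DNA without compound and 100% = DNA alone without protein; higher means less MgrA bound to DNA so lower polarization; one replicate is shown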
Sa helicase inh: blocks Staphylococcus aureus DNA helicase. purified S. aureus helicase, fluorescence unwinding assay; about half of the hits fall short of the stated cut. inhibition, %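 (tested at about 80 µM)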. hit rate 0.05% among 120,000;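 active means both duplicates at 50% or more, or one of them with a favoured structure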;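 further: 0% = mean of negative control wells and 100% = mean of positive control wells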
Starred values were filed as active, the others as inactive; · = not tested or not shown. Some of the compounds tested. The share of hits here may be higher or lower than overall.

SMILES | MgrA-DNA mod | Sa helicase inh
COC(=O)C1=C(C)NC(=O)C1(NS(=O)(=O)c1ccc(C)cc1)C(F)(F)F (configuration not stated) | -1.8 | 4
O=C(Cn1cc(C(=O)c2ccco2)c2ccccc21)NC1CCCC1 | · | 11
CCN(CC)CC(=O)Nc1ccc(Oc2ccc(NC(=O)CN(CC)CC)cc2)cc1 | 23 | -2
CNC(=O)c1cc(C)c(-c2ccccc2)s1 | 1.9 | 6
O=S(=O)(c1ccc(F)cc1)c1ccc(F)cc1 | 0.7 | 2
CC1CC1c1ccc(CCC(=O)Nc2ncc(Cc3cccc(Cl)c3)s2)o1 (configuration not stated) | 0.3 | 0
COc1ccc(/C=C2\CC/C(=C\c3ccc(OC)c(OC)c3)C2=O)cc1OC | 1.2 | ·
Cc1ccc(S(=O)(=O)N/N=C/c2ccc3c(c2)OCO3)cc1 | -3.9 | ·
CCOc1ccc(N(CC)c2nc(-c3cc(OC)ccc3OC)no2)cc1 | · | -21
O=C1Nc2cc(C(=O)N3CCN(c4ccccn4)CC3)ccc2S/C1=C\c1ccccc1 | · | 15
CC(C)(CC(=O)O)CC(=O)Nc1ccc(F)cc1 | · | -17
CS(=O)(=O)c1ccc(COC(=O)c2ccccc2O)cc1 | · | -11
FC(F)(F)c1ccncc1-c1nnnn1-c1ccccc1Cl | -0.9 | ·
c1ccc(NC2=NCCCCS2)cc1 | -3.6 | 3
CN(Cc1ccccc1)C(=O)c1cccc(-c2nnc(-c3ccccc3)o2)c1 | 1.3 | 12
N#Cc1ccc(NC(=O)CCC(=O)c2cccs2)cc1 | · | -21
Oc1c(C(c2ccc(Cl)cc2)N2CCOCC2)cc(Cl)c2cccnc12 (configuration not stated) | 2.2 | 4
CC1CCN(CC(=O)Nc2sccc2C#N)CC1 | · | 3
CCNC(=O)c1cc(S(=O)(=O)N2CCCCC2)ccc1C | 0.8 | -16
Cc1ccc(C)c(C(=O)COC(=O)c2n[nH]c3ccccc23)c1 | · | 3
FC(F)(F)c1ccc(N2CCN(Cc3ccccc3)CC2)nc1 | · | 12
COC(=O)c1[nH]c2ccccc2c1C(Nc1ccc(C(=O)O)cc1)c1ccccc1 (configuration not stated) | -0.1 | 11
O=c1c(-c2ccccc2)coc2cc(OCc3ccccc3F)ccc12 | 1.1 | -10
Cc1c(C)n(C(=O)CSC(=S)N2CCOCC2)c2ccccc12 | · | -37
O=S(=O)(Cc1ccccc1)/C1=C(\N2CCOCC2)CCCCCC1 | -1.1 | -8
N#Cc1nc(-c2cccs2)oc1N1CCCC1 | 1.1 | -14
COc1ccc(NS(=O)(=O)c2ccc3oc(SC/C(O)=C(\C#N)c4nc5ccccc5s4)nc3c2)cc1 | · | -14
O=C(CN1CCCCC1)N1CCCC(c2nc3sc4c(c3c(=O)[nH]2)CCCC4)C1 (configuration not stated) | -2.4 | 3
O=C(O)Cc1cn(-c2ccccc2)nc1-c1cccs1 | 0.1 | -8
O=C(Nn1cnc2c(cnn2-c2ccccc2)c1=O)C1CCCC1 | · | -3
CCCn1nnnc1SCC(=O)c1ccccc1 | 0.5 | -15
Cc1c(Cl)cccc1Nc1nc(C(C)(C)C)cs1 | -2.9 | ·
COCCNS(=O)(=O)c1c(C)nc2sccn2c1=O | · | 15
Cc1[nH][nH]c(=O)c1C1=NCCCCC1 | · | -11
Nc1ccc(Cl)cc1C(=O)NCc1ccncc1 | -1.4 | ·
O=C(Nc1ccccc1)C1CC(=O)N(Cc2ccc3c(c2)OCO3)C(=Nc2ccc(F)cc2)S1 (configuration not stated) | -0.3 | ·
COC(=O)c1cccc(N2COc3ccc4c5c(c(=O)oc4c3C2)CCC5)c1 | · | 4
CC(Oc1ccccc1)C(=O)NC1CCCC1 (configuration not stated) | 0.6 | 0
COC(=O)C1OC=C(C)C2CN3CCC4c5ccccc5NC4CC3CC21 (configuration not stated) | · | -27
CCO/C(C)=C1/SC(=S)NC1=O | -3.5 | ·
Cc1ccc(C(=O)OCC(=O)c2cccc(Cl)c2)s1 | -0.2 | -5
Nc1nc(NCc2ccc(F)cc2)nn1-c1ccccc1 | · | 6
Cc1cc(C)c(-n2nnnc2SCC(=O)c2cc3ccccc3o2)c(C)c1 | · | -11
Cc1ccc(N2C(=O)C(C)N=C2N2CCN(c3ccccc3)CC2)cc1 (configuration not stated) | · | -1
CCCn1c2ccc(CC)cc2c2nc3ccccc3nc21 | 12 | 5
CCC(=O)Nc1nonc1-c1nc2ccccc2[nH]1 | · | 7
COc1cccc(NC(=O)Cn2c3ccccc3c3nc(=O)cc(C)n32)c1 | 1.1 | 15
O=C(/C=C\c1ccccc1)OCCCN1C(=O)c2cccc3c(N4CCOCC4)ccc(c23)C1=O | 4.0 | ·
O=C(NCC1CC1)c1cccs1 | -1.5 | ·
COc1ccc(CCNC(=O)CSC2=NS(=O)(=O)c3ccccc32)cc1OC | · | 8
CN(C)CC(O)C12CC3CC(CC(C3)C1)C2 (configuration not stated) | 0.6 | -10
Cc1nc2c(c(C)nn2C(C)(C)C)c(C)c1CCC(=O)Nc1ccccc1 | · | -6
CCc1cccc(NC(=S)N(C2CCCCC2)C(C)c2cccs2)c1 (configuration not stated) | -1.9 | 10
O=C(COC(=O)c1ccc(Br)o1)NCc1ccccc1 | -0.4 | -10
COC(=O)C1C(=O)C=C(Nc2cc(OC)ccc2OC)CC1c1ccc(OC)cc1 (configuration not stated) | -0.8 | -7
COC(=O)c1sc(=S)n(C)c1C | 0.4 | 5
CCCCCCCCCCCC(=O)c1ccccc1 | -3.1 | ·
CCOC(=O)/C(=N\O)c1c(C)nn(C)c1C | · | -14
CCOc1ccc(C(=O)N2CCC(C)CC2)cc1 | -2.6 | 5
O=C(O)Cc1ccc(C(=O)CSc2ccccc2)s1 | 3.8 | ·

Reformatted as labelled records: 2 of the compounds above
CCOc1ccc(C(=O)N2CCC(C)CC2)cc1
  MgrA-DNA mod = -2.6	Sa helicase inh = 5
O=C(O)Cc1ccc(C(=O)CSc2ccccc2)s1
  MgrA-DNA mod = 3.8	Sa helicase inh = ·

Going on with the list:
SMILES | MgrA-DNA mod | Sa helicase inh
Cc1ccc(=O)n(Cc2ccc(F)cc2)n1 | · | 13
Cc1cc(=O)[nH]c(SCc2nnc(-c3ccccc3)o2)n1 | 0.8 | -2
COc1cc(NC(C)C(=O)N(C)c2ccccc2)cc(OC)c1OC (configuration not stated) | · | -13
O=C(CN1CCN(S(=O)(=O)c2ccc3c(c2)OCCO3)CC1)NC1CCCc2ccccc21 (configuration not stated) | · | -8
CCOC(=O)c1cnc(N2CCOCC2)nc1N | -1.8 | ·
N#CCCn1cc(CO)c(-c2ccccc2)n1 | 3.7 | 0
Cc1cc(OCC(=O)c2ccc(C(F)(F)F)cc2)n2cnnc2n1 | -3.2 | ·
CCOC(=O)CSc1nc(N)c(C#N)c(-c2ccc(OC)cc2)c1C#N | 0.8 | ·
O=C(O)Cc1nc2ccccc2s1 | · | -18
O=C(Cn1c(=O)n(Cc2ccco2)c(=O)c2sc3ccccc3c21)Nc1ccccc1 | · | 6
Nc1cccc(C(=O)Nc2ccccc2N)c1 | · | 24
CC(=O)N(Cc1ccccc1)c1ccccn1 | 1.7 | 18
O=C1c2ccccc2C(=O)N1CCSc1ccccc1 | 1.2 | 19
CC(C)c1nc2ccccc2n1CC(=O)N(c1ccccc1)C(C)C | -0.8 | 16
COc1ccc(CC(=O)OCC(=O)c2ccccc2)cc1OC | · | 11
CCO/C=N/c1oc(C)c(C)c1C#N | · | -101
O=C(NCc1ccccc1)C1CCCN(S(=O)(=O)c2ccc3nc(-c4ccccc4)[nH]c3c2)C1 (configuration not stated) | -2.0 | 7
Clc1ccc(/C=N/c2ccccn2)cc1 | -0.9 | 12
CCOCCC(=O)N1CCC(C(=O)OCC)CC1 | -1.6 | 3
Cc1c(C(=O)Nc2ccc(F)cc2)oc2ccc3c(c12)C(=O)CC(C)(C)O3 | · | -23
O=C(CCCn1sc2ccccc2c1=O)NC1CCCc2ccccc21 (configuration not stated) | 1.6 | 20
O=C(CN1CCCCC1)Nc1ccccc1-c1nc2ccccc2[nH]c1=O | · | 10
OCCSc1nnc(Nc2ccccc2)s1 | · | 3
CC(C)C(NC(=O)Nc1ccc(Cl)cc1)C(C)C | -1.6 | 16
O=C(O)CON=C1C2CC3CC(C2)CC1C3 | · | 5
CCOc1cc(N2CCOCC2)c(OCC)cc1NC(=O)Cc1c[nH]c2ccccc12 | · | -4
CCn1nnc2cc(C(=O)NCC(c3ccccc3OC)N(C)C)ccc21 (configuration not stated) | · | -9
CCc1cc(C(=O)c2ccc(OC)cc2)c(NC(=O)c2ccc(C(F)(F)F)cc2)s1 | -1.1 | ·
O=C(c1ccccc1)N1C(=S)C(c2ccccc2)=NC12CCCC2 | 1.1 | -2
O=C(OCC(=O)c1cccs1)c1cccc(C(=O)OCC(=O)c2cccs2)n1 | 0.8 | 8
O=C(Nc1cccc(COC(=O)c2ccccc2)c1)c1ccccc1 | -0.4 | ·
COC(=O)CC1=C(C(=O)OC)C(c2ccccc2)NC(=O)N1 (configuration not stated) | 0.4 | -5
COc1ccc(OC)c(NC(=O)CSc2nnc(CNc3ccc(C)cc3C)n2CC2CCCO2)c1 (configuration not stated) | 3.2 | 4
COC(=O)C1=CN(C(C)C)C=C(C(=O)OC)C1c1ccccc1Cl | · | -20
S=c1[nH]nc(-c2ccc(Cl)cc2)n1C1CCCCC1 | 0.8 | -11
CC(C)n1c(O)c(N=NC(=O)c2ccc3c(c2)OCO3)c2ccccc21 | · | 1
C=CCn1c(C(NC(=O)c2ccc(Cl)cc2Cl)C(C)C)n[nH]c1=S (configuration not stated) | -1.8 | 13
CC1CCCN(C(=S)NC2CCCC2)C1 (configuration not stated) | 0.7 | 12
CN1CCCN(C(=O)c2ccccc2OCc2ccccc2)CC1 | 1.2 | -10
CC(C)CC(=O)OCc1ccc(Cl)c(Cl)c1 | 0.5 | 4

2 entries from above, with values ahead of the structure:
MgrA-DNA mod | Sa helicase inh | compound
0.4 | -5 | COC(=O)CC1=C(C(=O)OC)C(c2ccccc2)NC(=O)N1 (configuration not stated)
3.2 | 4 | COc1ccc(OC)c(NC(=O)CSc2nnc(CNc3ccc(C)cc3C)n2CC2CCCO2)c1 (configuration not stated)

(cont.)
SMILES | MgrA-DNA mod | Sa helicase inh
COc1cc2[nH]c(=O)n(CCCC(=O)N3CCN(c4cccc(Cl)c4)CC3)c(=O)c2cc1OC | -2.5 | 7
O=C(CS(=O)(=O)Cc1ccccc1)Nc1nccs1 | -2.4 | 8
O=C(CN1CCN(c2ccccc2)CC1)N1CCc2ccccc21 | -7.2 | ·
COC(=O)c1c(C)oc2ccc(OCC(N)=O)cc12 | · | 5
O=C(C1=C(c2ccccc2)C(=O)c2ccccc2C1=O)c1ccccc1 | 2.8 | -14
CCOC(=O)N1CCN(C(=S)Nc2ccc3nsnc3c2)CC1 | 2.5 | 4
COC(=O)c1cc(COC(=O)/C=C/c2nc3ccccc3s2)oc1C | · | -5
Cc1nc2ccccc2nc1CSCC(=O)c1cc(C)n(C)c1C | · | -11
CC(C)NS(=O)(=O)c1ccc(NC(=O)C2CC2C)cc1 (configuration not stated) | -3.0 | 2
COc1ccc(-n2cc(C(=O)N(Cc3ccco3)C3CCCC3)c3ccccc3c2=O)cc1 | 2.5 | 6
CC(=O)SC1CC(=O)N(c2cc(Cl)cc(Cl)c2)C1=O (configuration not stated) | 1.7 | ·
CCOC(=O)c1[nH]c2ccccc2c1N | -1.6 | ·
CCC1CCCCN1C(=O)COC(=O)c1c2c(nc3ccccc13)CCC2 (configuration not stated) | · | 28
COC(=O)c1cc(C(O)(C(=O)OC)C(F)(F)F)c(N)s1 (configuration not stated) | · | 13
Cc1cccc(C(=O)NN(c2ccccc2)c2ccccc2)c1 | -0.7 | -15
Cc1ccc(-c2n[nH]c(S(C)(=O)=O)c2C#N)cc1 | 0.9 | ·
Cc1cc(-n2c(C)cc(C(=O)CSc3nc4ccccc4o3)c2C)no1 | · | -9
S=C(NCc1ccccc1)NN1CCCCC1 | · | -10
Cn1c(SCC(=O)N2c3ccccc3OCC2c2ccccc2)nnc1-c1ccco1 (configuration not stated) | · | 13
CN(C)Cc1cc(C=NC2CCCCC2)c(S)s1 | 3.6 | -2

Among those listed so far, two contain a tert-butyl group.
SMILES | MgrA-DNA mod | Sa helicase inh
Cc1c(Cl)cccc1Nc1nc(C(C)(C)C)cs1 | -2.9 | ·
Cc1nc2c(c(C)nn2C(C)(C)C)c(C)c1CCC(=O)Nc1ccccc1 | · | -6

Some of these compounds in order of their number in MgrA-DNA mod, falling.
SMILES | MgrA-DNA mod | Sa helicase inh
CN(C)Cc1cc(C=NC2CCCCC2)c(S)s1 | 3.6 | -2
COc1ccc(-n2cc(C(=O)N(Cc3ccco3)C3CCCC3)c3ccccc3c2=O)cc1 | 2.5 | 6
Cc1ccc(-c2n[nH]c(S(C)(=O)=O)c2C#N)cc1 | 0.9 | ·

More results:
SMILES | MgrA-DNA mod | Sa helicase inh
CC1(C)OC(=O)C(C2C3C4CC5C6C4CC3C6C52)C(=O)O1 (configuration not stated) | · | -2
CCc1ccc(C(=O)C(C)Sc2nncs2)cc1 (configuration not stated) | · | -6
CC(=O)OC1=CCC2C3CC[C@@]4(C)CC(OC(C)=O)CCC4(C)C3C(OC(C)=O)CC12C (some centres not stated) | -4.1 | ·
CN(C(=O)CC(=O)N(C)C1CCCCC1)C1CCCCC1 | 2.3 | 0
CCS(=O)(=O)N1CCC(C(=O)NCc2ccc(OC)cc2)CC1 | · | 18
O=C(Nc1ccc2c(c1)OCO2)c1ccc2c(c1)C(=O)N(C1CCCCC1)C2=O | 2.0 | 1
CCc1c(/C(C)=N/NC(N)=O)oc2ccc(C)cc12 | · | 3
CCn1c(SCc2cccc(C(=O)O)c2)nnc1-c1ccco1 | -2.1 | 16
Cc1cc(C)cc(Oc2ccccc2/C=N\O)c1 | -1.7 | ·
COc1cc(Cl)c(C)cc1NC(=O)CNC(=O)c1ccco1 | · | -3
CN(C)S(=O)(=O)c1ccc(C(=O)OC2CCOC2=O)cc1 (configuration not stated) | · | -7
